# Vif A3G: HIV-1 Vif–A3G interaction blockers – biochemical, TR-FRET, GST-Vif 1-94, biotin-A3G peptide, dose response retest, primary screen (AID 1117319); 260,000 tested, 0.57% active; TR-FRET GST-Vif / biotin-A3G peptide binding; higher % means a stronger effect; test concentration not given here; strong numbers were not always called active; one-dose inhibition, %; IC50 in µM for titrated hits;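 active = above the screen mean plus three standard deviations and confirmed in dose response; inconclusive = results disagree or hit not tested in dose response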;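 also: Vif residues 1-94 fused to GST binding biotinylated APOBEC3G peptide 110-148; 0% = full assay without inhibitor and 100% = GST in place of GST-Vif; retest series ran down from 100 µM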
# Ecoli growth: inhibitors of Escherichia coli growth | OD600, 23 h; active compounds read low | OD600 absorbance (concentration not given with the values) | 330,000 tested, 0.21% active | AID 1053175;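 active = OD600 absorbance below the run mean of sample wells minus 3.6 SD, in any replicate, cut at about 0.56 in these data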;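 also: stock transfer was 300 nL into about 60 µL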
# HNF4A DNA FP: change in binding of human HNF4 alpha to DNA; HNF4a-FITC DNA binding, fluorescence polarization, 1 h; activity change, % at 10 µM; 360,000 tested, 0.3% active; AID 1224865; in the data active = activity change above about 30%, passing the limit was not always enough;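 also: controls were the assay level and a saturating level of protein; the project sought stronger binding though the title names inhibitors; some compounds called inactive have numbers as strong as hits; positive values seem to mean higher polarization but the record does not say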
# Target sequence (P41235 whole entry, looked up): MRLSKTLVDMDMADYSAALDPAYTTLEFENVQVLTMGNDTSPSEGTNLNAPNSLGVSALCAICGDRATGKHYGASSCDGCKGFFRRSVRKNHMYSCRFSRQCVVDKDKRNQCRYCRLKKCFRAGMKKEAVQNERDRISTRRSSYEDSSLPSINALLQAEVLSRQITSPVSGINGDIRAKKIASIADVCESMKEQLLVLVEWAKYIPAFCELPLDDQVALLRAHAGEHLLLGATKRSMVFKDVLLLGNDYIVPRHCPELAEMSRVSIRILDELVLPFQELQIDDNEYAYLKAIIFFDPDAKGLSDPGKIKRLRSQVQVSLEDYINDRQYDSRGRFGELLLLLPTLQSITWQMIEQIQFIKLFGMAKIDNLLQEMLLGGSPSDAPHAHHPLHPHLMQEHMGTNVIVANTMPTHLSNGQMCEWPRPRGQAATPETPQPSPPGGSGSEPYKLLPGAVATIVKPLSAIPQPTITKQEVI
# UCH37 inh: human UCH37 deubiquitinating enzyme inhibition; Q9Y5K5; purified proteasome/UCH37, Ub-AMC cleavage fluorescence; inhibition, % (no concentration beside the values); 330,000 tested, 0.33% active;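 active = mean of two replicates above 20%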;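 also: 0% = compound-free wells with enzyme and 100% = wells lacking proteasome; stock transfer was 100 nL into about 20 µL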
# Target sequence (Q9Y5K5 whole entry, looked up): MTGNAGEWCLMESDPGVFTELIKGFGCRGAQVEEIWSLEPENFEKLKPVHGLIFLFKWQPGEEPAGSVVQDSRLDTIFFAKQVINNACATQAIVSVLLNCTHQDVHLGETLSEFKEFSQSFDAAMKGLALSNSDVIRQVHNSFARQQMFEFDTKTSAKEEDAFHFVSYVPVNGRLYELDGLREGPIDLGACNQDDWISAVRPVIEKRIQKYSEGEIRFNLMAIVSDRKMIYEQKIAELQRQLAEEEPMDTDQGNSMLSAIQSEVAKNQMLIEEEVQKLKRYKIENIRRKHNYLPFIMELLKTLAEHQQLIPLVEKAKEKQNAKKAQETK
#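 Test system – human UCH37 enzyme supplied as purified proteasome complex · Incubation – 30 min preincubation with enzyme, 25 min cleavage at room temperature · Detection – AMC fluorescence from Ub-AMC cleavage, excitation 355 nm, emission 460 nm · Benchmarks – no-proteasome wells (full inhibition) and compound-free wells (no inhibition)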
# RanGTP-Imp inh: disruptors of Ran-importin-beta complex formation – biochemical, FRET, CFP-Ran, YFP-importin-beta, homogeneous, primary screen; inhibition, % (test concentration not listed); cell-free CFP-Ran/YFP-importin-beta FRET ratio; 300,000 tested, 1.1% active; AID 2216;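 active = most replicates above 15%; inconclusive = exactly half above 15%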;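 also: 0% = DMSO wells and 100% = Ran loaded with GDP instead of GTP; wells of about 40 µL received 100 nL stock; the first replicate is given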
# FGF22 binding: shifts melting point of recombinant human FGF22; AID 651658; calls only at 9.99 µM; 340,000 tested, 1.5% active; Q9HCT0; recombinant FGF22 thermal shift, SYPRO orange fluorescence; percent of sucrose octasulfate shift, DMSO zero;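 active = melting point raised past a set limit in the mean and every replicate; inconclusive = no clear call; three in four hits are not shown here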
# Target sequence (Q9HCT0 whole entry, looked up): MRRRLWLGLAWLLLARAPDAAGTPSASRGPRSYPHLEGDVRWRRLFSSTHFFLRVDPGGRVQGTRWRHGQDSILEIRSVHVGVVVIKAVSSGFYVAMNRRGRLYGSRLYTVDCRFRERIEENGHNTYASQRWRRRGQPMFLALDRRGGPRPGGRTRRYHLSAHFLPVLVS
# AF4-AF9 inh: MLL-AF4/AF9 protein interaction inhibition. inhibition, % at 10 µM. 350,000 tested, 0.47% active. P42568. AlphaScreen, biotin-AF4 peptide binding to FLAG-AF9;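 active = every replicate reaching a set inhibition limit, whatever the replicate mean, cut at about 25% in these data; inconclusive = mean inhibition reaches that limit but some replicates miss it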;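 also: 0% = plate neutral control median and 100% = total signal loss; the record names both 10 and 1 µM as test concentration; the first replicate is given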
# Numbers without * were called inactive; i = inactive; ? = inconclusive; . = no result given; & = joins results of further samples. These rows are one share of the data. The share of hits here may be higher or lower than overall.
SMILES,Vif A3G,Ecoli growth,HNF4A DNA FP,UCH37 inh,RanGTP-Imp inh,FGF22 binding,AF4-AF9 inh
CCCCN(Cc1cccs1)S(=O)(=O)c1ccc(-c2ccc(=O)[nH]n2)s1,.,0.673,-1.0,2.3,-8.7,i,0.5
Cc1nc(C2CC(=O)OC23CCCCC3)cs1 (stereo unspecified),-4.2%,0.714,4.6,-1.2,-3.6,.,0.1
COc1cccc(OCC(O)CN2CCN(c3ccccc3)CC2)c1 (stereo unspecified),-5.5%&26.0%,0.604&0.671,3.7&0.4,6.3&4.8,-4.0&1.5,i,-4.3&-9.0
CN(C)C(=O)c1c(NC(=O)c2ccco2)sc2c1CCCCC2,10.2%,0.695,-1.3,-0.2,3.1,.,.
CCN(CCS(=O)(=O)c1ccc(Cl)cc1)C(=O)Nc1ccccc1,2.7%,0.653,-4.4,3.0,-0.4,i,1.3
O=[N+]([O-])c1cccc(C2=NCCC(c3ccccc3)O2)c1 (stereo unspecified),.,0.686,4.4,2.3,0.9,i,6.6
CC(=O)NCCC(=O)Nc1ncc(S(=O)(=O)c2ccc([N+](=O)[O-])cc2)s1,-3.6%,0.645,-1.6,6.6,5.3,i,-0.5
COc1ccc(-c2cc(C(=O)NCCCN3CCOCC3)on2)cc1OC,-3.8%,0.65,-1.8,2.5,-2.8,i,-0.5
O=C(COC(=O)CNC(=O)C1CCCCC1)Nc1cccc(F)c1,-2.2%,0.666,2.5,1.2,.,i,-2.3
Cc1ccccc1C(=O)Nc1ccc(S(=O)(=O)N2CCN(C)CC2)cc1,3.0%,0.675,-7.4,7.3,0.0,.,.

# Structural class, those above with two or more sulfur atoms
SMILES,Vif A3G,Ecoli growth,HNF4A DNA FP,UCH37 inh,RanGTP-Imp inh,FGF22 binding,AF4-AF9 inh
CCCCN(Cc1cccs1)S(=O)(=O)c1ccc(-c2ccc(=O)[nH]n2)s1,.,0.673,-1.0,2.3,-8.7,i,0.5
CC(=O)NCCC(=O)Nc1ncc(S(=O)(=O)c2ccc([N+](=O)[O-])cc2)s1,-3.6%,0.645,-1.6,6.6,5.3,i,-0.5

# Next records
SMILES,Vif A3G,Ecoli growth,HNF4A DNA FP,UCH37 inh,RanGTP-Imp inh,FGF22 binding,AF4-AF9 inh
Cc1nnc(SC(C)C(=O)NC2CCCc3ccccc32)n1-c1ccccc1 (stereo unspecified),10.3%,0.672,1.2,2.6,-2.8,i,-0.7
O=C(O)CCS(=O)(=O)c1cc(Br)cc2c1N(C(=O)C1CC1)CC2,-3.5%,0.712,-3.7,0.4,7.0,i,-0.9
Nc1nc(-c2ccccc2)c(-c2ccccc2)s1,3.7%,0.694,0.6,1.8,0.1,.,.
Cc1nnc(SCC(=O)NC2CCCCC2)n1C1CCCCC1,-8.3%,0.704,2.0,0.4,-0.8,.,.
O=C(CSC1CC(=O)N(CCc2ccccc2)C1=O)Nc1cccc(Cl)c1 (stereo unspecified),3.6%,0.665,-2.0,-20.5,0.4,.,.
COc1ccc(CN(C)C(=O)c2cc(-c3ccccc3)nc3ccc(C)cc23)c(OC)c1OC,-1.0%,0.753,-0.1,-0.5,-0.9,i,0.9
Cc1cc(C)c(S(=O)(=O)N2CCCOC2CNC(=O)C(=O)NCc2ccccn2)c(C)c1 (stereo unspecified),1.9%,0.716,2.8,1.5,0.1,i,0.7
Clc1cccc(CSc2nnc(-c3ccccn3)n2Cc2ccco2)c1,5.5%,0.758,3.8,3.8,-0.7,.,.
COc1ccc(Br)cc1[C@H]1[C@H]2C=CC[C@@H](C)[C@@H]2C(=O)N1Cc1ccccc1,.,.,-0.8,-0.7,10.4,i,-0.6
CCOC(=O)c1c(S(=O)(=O)N2CCCC2)c(C)n(C)c1C,8.3%,0.641,4.0,0.2,1.0,i,-0.8
O=C(OCN1C(=O)c2ccccc2C1=O)c1ccco1,15.0%,0.677,-3.0,0.3,1.3,.,.
N#CCCCCN1c2cccc3cccc(c23)S1(=O)=O,1.2%,0.682,2.9,-57.2,-0.3,.,.
O=C1C(=Cc2ccco2)CCC1=Cc1ccco1,-4.1%,0.684,-59.0,-0.6,.,i,-0.7
COc1ccccc1N1CCN(C(=O)c2ccccc2SCC(=O)N2CCCC2)CC1,15.5%,0.589,-1.9,-0.1,.,i,-4.2
CC(C)c1c(O)nc(SCC(=O)Nc2ccc3c(c2)CCC3)[nH]c1=O,-4.0%,0.753,-0.8,8.1,4.7,.,.
COc1ccncc1-c1ccc(C2=CC(=O)CC(C)(C)C2=O)cc1,0.2%,.,7.6,.,.,i,1.7
COc1ccc(-n2ccnc2SCC(=O)NCc2ccco2)c(OC)c1,.,0.655,-5.5,3.6,-1.6,i,1.3
CCN1CCN(c2nc3sc4c(c3c(=O)n2-c2ccc(OC)cc2)CCCCC4)CC1,11.1%,0.669,1.4,2.2,?,.,.
CCCNC(=O)C1CCN(S(=O)(=O)c2ccc3[nH]c(=O)ccc3c2)CC1,.,0.758,-0.2,4.6,-2.3,i,-2.8
CCNC(=O)NC(=O)C(C)OC(=O)Cc1coc2cc3c(cc12)CCC3 (stereo unspecified),-6.9%,0.709,-4.0,-2.3,?,i,-1.1
CCOC(=O)N1CCN(c2ncc(C(F)(F)F)cc2Cl)CC1,.,0.697,-1.6,6.2,-1.0,i,0.7
CC(=O)Nc1ccc(OCCC[n+]2ccccc2)cc1,24.7%,0.643,-4.4,1.9,16.6*,i,30.8*
CC(NC(=O)COC(=O)c1cc(=O)c2ccccc2o1)c1ccccc1 (stereo unspecified),-3.4%,0.711,-1.6,0.9,.,i,-4.0
Cc1ccc(N/N=C(\C#N)C(=N)N2CCCCC2)cc1,-5.0%,.,1.7,.,5.2,i,9.6
CNc1ccccc1C(=O)OCC(=O)c1ccccc1,9.6%,0.673,3.0,-95.6,5.7,i,-7.5
COc1ccccc1NC(=O)COC(=O)c1c[nH]c2ccccc12,.,0.717,-0.4,3.5,.,i,-0.6
O=C(NCCN1CCC(n2c(=O)[nH]c3ccccc32)CC1)c1ccc(Cl)cc1Cl,.,.,2.8,.,.,i,-2.5
CCOCCCNC(=O)c1cn(CC(C)C)c(=O)c2c1c1ccccc1n2C,.,0.707,6.0,-86.1,-1.6,i,-0.5
CSCc1ccc(C(=O)NCc2ccccc2)cc1,-2.9%,0.67,-0.7,-1.8,1.2,.,.
CC(=O)c1ccc(OCC(=O)OCC(=O)N(CC(C)C)c2c(N)n(Cc3ccccc3)c(=O)[nH]c2=O)cc1,-9.7%,0.633,1.7,1.3,.,.,-0.1
CN(CCOc1ccccc1)CC(=O)Nc1cccc(C#N)c1,-4.8%,0.69,-3.8,2.0,-1.1,i,-10.2
Cn1ccc2c(N3c4ccccc4CCc4ccccc43)cc3c(c21)C1CCC3C1 (stereo unspecified),.,.,5.4,.,.,.,5.1
COc1ccc(CNC(=O)C(=O)NCCC2CCCCN2S(=O)(=O)c2ccccc2)cc1 (stereo unspecified),-2.7%,0.65,0.8,5.3,3.2,i,-0.7
COc1ccc(OC)c(CCNC(=O)Cn2ccc3cc(S(=O)(=O)N4CCCC4)ccc32)c1,-11.6%,0.672,2.8,-0.5,-0.3,i,0.3
Nc1nc(CN2CCN(Cc3ccccc3)CC2)nc(N2CCCc3ccccc32)n1,.,0.673,-0.4,1.4,-2.5,i,-5.5
CCOC(=O)c1c(C)[nH]c2c1-c1ccccc1C(=O)C2=O,-5.9%,0.642,6.2,72.6*,0.7,i,2.8
COc1cc2c(cc1OC)C(C)N(C(C)=O)CC2 (stereo unspecified),0.0%,0.71,-1.6,1.2,0.4,.,.
O=C(Nc1ccccn1)C1CCN(S(=O)(=O)c2ccc(Cl)cc2)CC1,4.2%,0.597,4.7,1.2,2.8,i,1.0
CCOc1ccc(NC(=O)CCN2CCN(C)CC2)cc1,-1.8%,0.633,-6.3,4.9,0.1,i,-1.7
Cc1c(N=C2NN=C(c3ccc(Cl)cc3)CS2)c(=O)n(-c2ccccc2)n1C,3.9%,0.67,5.5,4.0,3.8,i,3.8
Cc1cc(/C=C(\C#N)C(=O)Nc2ccc(Cl)cc2)c(C)n1-c1ccc(N2CCOCC2)c([N+](=O)[O-])c1,6.6%,0.72,-1.5,6.2,-0.7,i,1.2
Cc1ccn2cc(-c3cccc(NC(=O)c4ccccc4)c3)nc2c1,5.6%,0.606,0.8,-6.0,-9.9,.,.
CC(=O)N1CCc2cc(Br)cc(S(=O)(=O)N3CCC(C(=O)O)CC3)c21,?,0.649,-5.4,-0.6,0.5,i,8.7
O=C(CN1C(=O)c2cccc3cccc1c23)N1CCN(c2cccc(Cl)c2)CC1,-10.7%,0.763,-2.5,-66.6,2.6,.,.
O=C(O)/C=C\C(=O)Nc1ccc(N2CCN(c3ccc(Cl)c(Cl)c3)CC2)cc1,7.9%,.,-4.1,.,2.6,.,1.4
CC(=O)Nc1cnc(-c2ccccc2C(F)(F)F)cn1,.,.,0.2,.,.,i,-1.5
Cc1[nH]c(=O)[nH]c(=O)c1NC(=O)c1cccs1,-0.4%,0.682,0.7,3.4,1.8,.,.
CCN1CCc2nc3sc(C(=O)Nc4cccnc4Cl)c(N)c3cc2C1,.,0.704,7.7,-15.2,?,i,0.9
C=CCOC(=O)C1=C[C@H](c2ccccc2)[C@@H](CCCO)[C@H](OCC)O1,-7.5%,.,2.8,0.0,?,i,-0.9
CCOC(=O)c1[nH]c2ccccc2c1NC(=O)CN(C)C,-4.9%,0.683,-0.4,-1.3,-0.6,.,.
# Continuation:
SMILES,Vif A3G,Ecoli growth,HNF4A DNA FP,UCH37 inh,RanGTP-Imp inh,FGF22 binding,AF4-AF9 inh
O=C(O)CCn1c(SCc2cccc3ccccc23)nc2ccccc21,?,0.702,0.8,1.8,0.4,.,.
COc1cc(/C(C)=N/NC(=O)CSc2nc3ccccc3[nH]2)ccc1O,8.1%,.,2.6,.,-2.6,i,?
CCC(=O)Oc1ccc2c(C)cc(=O)oc2c1C,6.5%,0.727,-2.3,-274.2,1.7,.,.
Cc1ccc(C#N)c(SCc2ccccc2[N+](=O)[O-])n1,-7.0%,0.741,2.2,1.2,3.6,i,5.2
CC(=O)c1cccc(OCc2cc(C(=O)N3CCC(N4CCCCC4)CC3)no2)c1,1.2%,0.674,2.9,-1.7,0.0,i,6.2
CC(OC(=O)CNC(=O)C1CCCCC1)C(=O)NCc1ccccc1 (stereo unspecified),0.5%,0.73,5.1,1.7,.,i,3.0
Cc1ccc(C(=O)NCCCNC(=O)c2ccco2)cn1,.,0.63,1.1,1.0,?,i,1.2
COc1ccccc1NC(=O)c1nnn(Cc2ccccc2)c1NC(C)=O,9.6%,0.683,1.6,-1.9,-1.1,.,.
OC(CNCc1ccccc1F)(c1ccc(F)cc1)c1ccc(F)cc1,-2.8%,0.706,5.2,1.8,8.1,i,-3.9
Cc1cc(Br)c2c(c1)=C(c1sc(N3CCCCCC3)nc1O)C(=O)N=2,1.3%,0.712,-5.6,5.5,-1.3,.,.
C/C(=N\Nc1cc(C(F)(F)F)ccc1Cl)c1ccncc1,.,.,-0.9,.,3.8,i,7.0
O=C(COc1ccccc1)NCC(=O)N1CCCCCC1,12.2%,0.645,-0.2,3.6,.,i,-0.5
c1ccc(N=Nc2ccc3cccccc2-3)cc1,.,0.657,0.3,3.7,-2.3,i,76.9*
O=C(O)c1ccc(Cn2c(=S)[nH]c3cc(Cl)ccc3c2=O)cc1,4.1%,0.691,1.0,3.6,4.4,.,-1.0
COc1cc(C(=O)Nc2nnc(C)s2)cc(OC)c1OC,1.9%,0.732,4.5,3.9,-2.8,i,-0.3
COCCNC(=O)C/C(C)=N/NC(=O)C(=O)NC1CCCCC1,9.8%,.,-0.3,.,0.5,i,-1.3
Cc1ccc(Nc2cc(C(=O)NCCCN3CCOCC3)c3ccccc3n2)cc1C,.,0.65,8.4,2.5,1.5,i,1.4
CC#CC[N+](C)(C)CCCCCCCCCCCC,4.4%,0.55,0.1,5.9,1.4,i,2.6

# Screens from PubChem BioAssay.
